Sfp PPTase inh – qHTS Assay for Inhibitors of Bacillus subtilis Sfp phosphopantetheinyl transferase (PPTase); Potency, µM, without a hit: max response, negative = inhibition, hits mostly inhibitors; 310,000 tested, 3.5% active; Biochemical Sfp PPTase activity, qHTS; 4'-phosphopantetheinyl transferase ffp (Bacillus subtilis), Q9F4F7; active = well fitted inhibition curve with a large enough effect; inconclusive = small, poorly fitted or top-dose-only effect, or another doubt; inactive = no such curve, though single readings can be large or run the other way;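 also: the enzyme is Sfp with the accession as filed and its product quenches rhodamine fluorescence; potency is read from the fitted curve at half-maximal effect; 0% = enzyme reaction without inhibitor and -100% = no enzyme wells; top concentration of the series not given in the record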
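Step 1, compound plus 15 nM Sfp-PPTase, 15 min, room temperature. Step 2, add rhodamine-CoA (5 uM) and BHQ-2-YbbR (12.5 uM). Step 3, read 525/598 nm fluorescence at 0 and 30 min.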
Menin-MLL FL inh – qHTS Assay for Inhibitors Targeting the Menin-MLL Interaction in MLL Related Leukemias: Competition With Fluorescein Labeled MLL-derived Peptide. Fluorescence polarization, fluorescein-MLL peptide displacement from menin. FP activity change, % at 61.4 µM. 290,000 tested, under 10 active. AID 1766, 2009; inconclusive = falling polarisation curve, or a change in total fluorescence; inactive = total fluorescence flat and polarisation flat or rising; no compound was filed as active; the % refers to the polarisation; negative = inhibition;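 also: % of control where 0% means no effect; inhibitors lower the polarisation; unlabelled MLL peptide was the positive control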
* marks the source's active call; other numbers are inactive results; ? = inconclusive; & = joins results of further samples; [ ] = dose if it differs, or a comment.

item	Compound	Sfp PPTase inh	Menin-MLL FL inh
1	CC(C)[C@@H](CC(=O)N[C@@H]1CCCC[C@H]1C(=O)N[C@H](CC(=O)N[C@@H](CCC(=O)O)CC(=O)O)Cc1c[nH]c2ccccc12)NC(=O)C[C@H](Cc1ccccc1)NC(=O)[C@@H]1CNCC[C@H]1N	-21%	-11
2	CC(C)C[C@@H](CC(=O)N[C@@H](CCC(=O)O)CC(=O)O)NC(=O)[C@@H]1CCCC[C@H]1NC(=O)C[C@H](CCCN)NC(=O)C[C@H](Cc1c[nH]c2ccccc12)NC(=O)[C@@H]1CCCC[C@H]1N	-18%	2.5
3	CCc1cc2c(nc1CC)CCN(CC/C(C)=N/OC[C@@H](O)[C@@H]1O[C@@H]3OC(C)(C)O[C@@H]3[C@H]1O)C2	-5%	-0.9[11.7 µM]
4	Cn1cc(-c2nc3cnc(Oc4ccccc4)nc3n(C)c2=O)c2ccccc21	22%	3.0
5	COc1cccc(Nc2ncc3nc(-c4ccccc4)c(=O)n(Cc4cccs4)c3n2)c1	23%	?
6	Cc1cccc(CNc2nc(-c3cccc(NS(C)(=O)=O)c3)nc3ccccc23)c1	-8%	0.5
7	CC1(C)CC=C(O[Si](C)(c2ccccc2)c2ccccc2)CC1	14%	-2.3
8	COc1ccc(S(=O)(=O)N(CCO)c2ccccc2CN(C)CC=Cc2ccc(Cl)cc2)cc1	-3%	-1.0
9	CN1CCN(c2ncc3ncc(=O)n(-c4ccccc4)c3n2)CC1	18%	-0.6
10	CN(CCOc1ccc(C[C@H](Nc2ccccc2C(=O)c2ccccc2)C(=O)O)cc1)c1ccccn1	1%	?
11	C/C(=C\C(=O)OCCCCCCCCC(=O)O)C[C@@H]1OCC(C[C@H]2O[C@H]2[C@@H](C)[C@H](C)O)[C@@H](O)[C@H]1O (stereo partly drawn)	4%	0.5
12	c1ccc(-c2ccc(N3CCCC4(CCNCC4)C3)cc2)cc1	28µM*	18
13	O=C(c1cnccn1)N1CCC2(CC1)CN(C(c1ccccc1)c1ccccc1)C2	13%	-5.8
14	CCC(Cc1c(I)cc(I)c(O)c1I)C(=O)O (stereo not drawn)	56µM*	-2.5
15	Cn1cnc2c(NCc3ccccc3)nc(NCCO)nc21	-7%&13%&7%&-11%	6.0&-9.6&0.8
16	OC[C@@H]1O[C@@H](O)[C@H](O)[C@H](O)[C@@H]1O	17%	-0.3
17	NCCC[C@@H](CC(=O)N[C@@H]1CCNC[C@H]1C(=O)N[C@H](CC(=O)N[C@@H](CCC(=O)O)CC(=O)O)Cc1c[nH]c2ccccc12)NC(=O)C[C@H](Cc1c[nH]c2ccccc12)NC(=O)[C@@H]1CNCC[C@H]1N	-17%	-0.8
18	NC(=O)c1ccc[n+]([C@@H]2O[C@H](COP(=O)([O-])OP(=O)(O)OC[C@H]3O[C@@H](n4cnc5c(N)ncnc54)[C@@H](O)[C@@H]3O)[C@@H](O)[C@@H]2O)c1	8%	-0.6[24.8 µM]
19	COc1ccc(CCC(=O)c2c(O)cc(OC3OC(CO)C(O)C(O)C3O[C@@H]3OC(C)C(O)C(O)C3O)cc2O)cc1O (stereo partly drawn)	-14%	5.0
20	COc1cccc(Cn2c(=O)c(-c3cccc(C#N)c3)nc3cnc(N4CCOCC4)nc32)c1	23%	3.7
21	O=C(N/N=C1/C[C@@H](O)[C@@H](O)[C@@H]2[C@H]3C(=O)N(c4ccc(F)cc4F)C(=O)[C@@H]3CC[C@@H]12)OCc1ccccc1	-6%	5.1[11.7 µM]
22	C=C[C@@]1(C)CC(=O)[C@@]2(O)[C@@]3(C)[C@@H](O)CCC(C)(C)[C@@H]3[C@H](O)[C@H](OC(C)=O)[C@@]2(C)O1	-12%	0.2
23	CC1(C)OC2CC3C4CCC5=CC(=O)CCC5(C)C4(F)C(O)CC3(C)[C@]2(C(=O)CCl)O1 (stereo partly drawn)	15%	1.1
24	C#C[C@@]1(OC(C)=O)CC[C@@H]2[C@@H]3CCC4=C[C@@H](OC(C)=O)CC[C@H]4[C@H]3CC[C@]21C	-12%	2.1[24.8 µM]
25	CCCC[C@H](CC)CN=C(N)NC(N)=NCCCCCCN=C(N)NC(N)=NC[C@@H](CC)CCCC	8.9µM*	-5.6[24.8 µM]
26	COc1ncc2ncc(=O)n(C3CC3)c2n1	25%	?
27	C[C@@H](C(=O)NCc1nc2ccccc2[nH]1)[C@@H]1C[C@@]1(C)[C@@H](NC(=O)OCc1ccccc1)c1ccccc1	18%	1.0
28	O=C(/C=C/c1ccc(OCc2ccccc2)cc1)c1cccs1	-22%	?
29	NCC(=O)N[C@@H](CCCN=C(N)N)C(=O)NCC(=O)N[C@@H](CC(=O)O)C(=O)N[C@@H](CC(N)=O)C(=O)N1CC[C@@H](C(=O)O)C1	6%	3.1
30	CC(C)NC(=O)N1CC2(CCN(C(=O)c3ccco3)CC2)C1	2%	-5.6
31	Cn1c(=O)c(-c2ccc(Cl)cc2)nc2cnc(OCc3ccccc3)nc21	21%	1.4
32	C[C@H]1[C@H](C)CC[C@]2(C=O)CC[C@]3(C)C(=CC[C@@H]4[C@@]5(C)C[C@@H](O)[C@H](O)[C@@](C)(CO)[C@@H]5CC[C@]43C)[C@H]12	43%[activator]	0.5
33	Cc1noc(C)c1C(=O)N1CCC[C@@]2(CCN(c3ccccn3)C2)C1	14%	-0.9
34	CCOC(=O)C1=C(C)NC(C)=C(C(=O)OCC)C1c1ccccc1C=CC(=O)OC(C)(C)C	33%	-2.1
35	C=CC[C@@H]1C=C[C@@H](O/N=C2/C[C@@H](O)[C@@H](O)[C@@H]3[C@@H]4C(=O)N(CC)C(=O)[C@H]4CC[C@@H]23)[C@@H](CO)O1	19%	-0.5[11.7 µM]
36	O=C(NCC1CCCCC1)c1nnc(C(=O)NCC2CCCCC2)c2c1[nH]c1ccccc12	-28%	1.8
37	CC(C)C[C@@H](CC(=O)N[C@@H](CCC(=O)O)CC(=O)O)NC(=O)[C@@H]1CCCC[C@H]1NC(=O)C[C@H](CCCN)NC(=O)C[C@H](CO)NC(=O)[C@@H]1CCCC[C@H]1N	-16%	0.3
38	O=C1OC(C(O)CO)C(O)=C1O (stereo not drawn)	-2%	0.5
39	CO[C@H]1COC(=O)[C@H](C)COC(=O)[C@@H](OCc2ccccc2)/C=C\[C@@H]1C	18%	5.2[11.7 µM]
40	COc1cc(C2CC(=O)Oc3cc(C)c(Cl)cc32)cc(OC)c1OC (stereo not drawn)	-12%	?
41	COc1ccc(-n2c(=O)c(C)nc3cncnc32)cc1	12%	2.0
42	N#CCCn1c(=O)cnc2cnc(Oc3ccccc3)nc21	21%	-4.1
43	COC(=O)CC[C@@H](C)[C@H]1CC[C@H]2[C@@H]3CC[C@@H]4C[C@H](O)CC[C@]4(C)[C@H]3C[C@H](O)[C@]12C	7%	?
44	COc1ccc(-c2coc3c(OC)c(OC)cc(OC)c3c2=O)cc1	4%	-0.6
45	CC(C)=CCC[C@](C)(O)C1CC=C(C)CC1 (stereo partly drawn)	14%	-0.7
46	CCCn1c(C)nc2c(NCCN(C)C)nc(C)nc21	1%	-0.8
47	O=C(c1ccncc1)N1CCC[C@@]2(CCN(Cc3ccccc3)C2)C1	-4%	-0.4
48	CC[C@H](C)[C@@H](NC(=O)O[C@@H]1Cc2cc(OC)ccc2O[C@H]1c1cccc(OC)c1)C(=O)OC	-9%	4.7
49	COc1ccc(C(=O)N2CCC3(CC2)CN(c2cccc(-c4ccccc4)c2)C3)cc1	-19%	-0.9
50	Cc1ccccc1-c1ccc2ncnc(N3CCN(C)CC3)c2c1	8%	-5.0
51	COc1ccccc1-c1nc(NCc2cnc(C)cn2)c2ccccc2n1	50µM*	-0.6
52	CCN1CCCC1Cn1c(-c2ccccc2)nc2c(NCc3ccccc3)nc(C)nc21 (stereo not drawn)	11%	-3.2
53	O=c1c(-c2ccc(F)cc2)nc2cnc(N3CCOCC3)nc2n1C[C@H]1CCCO1	21%	-1.1
54	CN(C)C(=O)c1ccc(-c2cncnc2N(C)Cc2ccco2)cc1	-5%	-9.0
55	NC(Cc1ccc(Cl)cc1)C(=O)O (stereo not drawn)	2%	3.8&-0.2
56	CC(C)[C@@H](OCc1ccccc1)[C@H](C)/C=N\O[C@@H](C)c1cn([C@H](CO)Cc2ccccc2)nn1	-5%&14%	0.2&0.6[11.7 µM]
57	COc1ccc(OC)c(C2=Nn3c(nnc3-c3ccc(OC)c(OC)c3)SC2)c1	-16%	-0.8
58	CC(C)CCCC(C)C1CCC2C3C(=O)C=C4CC(O)CC[C@@]4(C)C3CC[C@@]12C (stereo partly drawn)	-4%	-3.5
59	C[C@@]1(O)C(O)[C@@H](CO)O[C@H]1n1cnc2c(NC3CCCC3)nc(Cl)nc21 (stereo partly drawn)	12%	1.3
60	C=C1CCC(O)C/C1=C/C=C1\CCC[C@@]2(C)C(C(C)/C=C/C(C)C(C)C)CC[C@@H]12 (stereo partly drawn)	19%	2.0

A different layout for part of the listing above.
#50 Cc1ccccc1-c1ccc2ncnc(N3CCN(C)CC3)c2c1
  Sfp PPTase inh = 8%	Menin-MLL FL inh = -5.0

#51 COc1ccccc1-c1nc(NCc2cnc(C)cn2)c2ccccc2n1
  Sfp PPTase inh = 50µM*	Menin-MLL FL inh = -0.6

#52 CCN1CCCC1Cn1c(-c2ccccc2)nc2c(NCc3ccccc3)nc(C)nc21 (stereo not drawn)
  Sfp PPTase inh = 11%	Menin-MLL FL inh = -3.2

#53 O=c1c(-c2ccc(F)cc2)nc2cnc(N3CCOCC3)nc2n1C[C@H]1CCCO1
  Sfp PPTase inh = 21%	Menin-MLL FL inh = -1.1

3 entries from above in a different format:
#35 C=CC[C@@H]1C=C[C@@H](O/N=C2/C[C@@H](O)[C@@H](O)[C@@H]3[C@@H]4C(=O)N(CC)C(=O)[C@H]4CC[C@@H]23)[C@@H](CO)O1
#36 O=C(NCC1CCCCC1)c1nnc(C(=O)NCC2CCCCC2)c2c1[nH]c1ccccc12
#37 CC(C)C[C@@H](CC(=O)N[C@@H](CCC(=O)O)CC(=O)O)NC(=O)[C@@H]1CCCC[C@H]1NC(=O)C[C@H](CCCN)NC(=O)C[C@H](CO)NC(=O)[C@@H]1CCCC[C@H]1N

Assay by compound	35	36	37
Sfp PPTase inh	19%	-28%	-16%
Menin-MLL FL inh	-0.5[11.7 µM]	1.8	0.3

Carrying on:
item	Compound	Sfp PPTase inh	Menin-MLL FL inh
61	CCOC(=O)[C@]1(C(/C=C/c2ccco2)NC(=O)OC)CCCC1=O (stereo partly drawn)	-6%	4.2[11.7 µM]
62	Cc1ccc(S(=O)(=O)OCC2CN3C(CCC(C)C3c3ccc(Br)cc3)C(=O)O2)cc1 (stereo not drawn)	31%&-16%[activator]	0.1&0.6&1.1[11.7 µM]
63	C#CCCCO/N=C1/C[C@@H](O)[C@@H](O)[C@@H]2[C@@H]3C(=O)N(C4CCCCC4)C(=O)[C@H]3CC[C@@H]12	11%	-0.2[11.7 µM]
64	COc1ccc(-n2c(=O)c(CCc3ccccc3)nc3cnc(N(C)C)nc32)cc1	20%	-0.4
65	Nc1nc(Cl)nc2c1ncn2[C@@H]1O[C@H](CO)[C@H](O)C1F (stereo partly drawn)	11%	-0.4
66	C/C(CCN1CCCCc2nc(C)c(C)cc21)=N\O[C@@H](C)CN1CCCc2nc(C)c(C)cc21	19%	-7.6[11.7 µM]
67	COc1ccccc1CNc1ncncc1-c1ccccc1OC	-29%	0.2
68	COCCn1c(=O)c(-c2cc(F)cc(F)c2)nc2cnc(N(C)C)nc21	12%	-18
69	CN1CCN(c2cc(-c3ccc(N(C)C)cc3)ncn2)CC1	-1%	5.5
70	C[C@@]1(O)CCOC(=O)C1	-4%	0.5[24.8 µM]
71	c1cncc(-c2nccc(-n3ccnc3)n2)c1	3%	0.8
72	O=C(c1csnn1)N1CCC2(CC1)CCN(c1ncccn1)CC2	23%	-3.9
73	C=CCC1(C)OC=Cc2nc3cc(Cl)c(Cl)cc3nc21 (stereo not drawn)	0%	0.3[11.7 µM]
74	CC(C)=C1C(=O)C(c2ccccc2)=C2CN3C(=O)N(CCc4ccccc4)C(=O)[C@]3(Cc3ccccc3)[C@H]21	12%	6.0
75	CC(C)C[C@@H](NC(=O)[C@H](Cc1ccccc1)NC(=O)c1cnccn1)B(O)O	7%	-2.6
76	COc1cc(O)c(C)c(O)c1	10%	-0.4
77	O=C(/C=C/c1ccc2c(c1)OCO2)c1ccccc1	?	-0.7
78	OCC1OC(c2ccccc2)C=CC1Oc1cc(Cl)cc(Cl)c1 (stereo not drawn)	-3%	-0.2[11.7 µM]
79	CCC[C@H]1C[C@H](C(=O)N[C@@H]([C@H]2O[C@@H](SC)[C@@H](O)[C@@H](O)[C@@H]2O)[C@H](C)Cl)N(C)C1	26%	0.2[24.8 µM]
80	O=C(O)[C@H]1CN[C@H](C(=O)O)C1	?	4.0
81	O=c1c(CCc2ccccc2)nc2cnc(N3CCOCC3)nc2n1Cc1cccs1	12%	5.8

Compound activity from PubChem BioAssay.

The list is partial, so the mix of outcomes need not match the whole.
